Ab BasE inh: BasE siderophore biosynthesis inhibition | purified BasE, fluorescence polarization binding displacement | inhibition, % (concentration not given with the values) | actives 0.1% (n = 84,000) | AID 485350;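 active = both replicates above 25% with normal brightness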;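 note: 0% = negative plate control signal and 100% = positive plate control signal; stock transfer was 100 nL into about 30 µL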
KSHV LANA nucl: LANA-nucleosome interaction inhibition; FITC-LANA1-23 / chicken nucleosome fluorescence polarization; hits give low values; actives 0.3% (n = 51,000); z-score (no concentration beside the values);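 active = both repeat wells score below -2 in polarization z-score versus plate sample wells, excluding overly bright wells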;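 note: 100 nL library stock added to about 30 µL; numbers are from one replicate; some results filed as inactive read as strong as hits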
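Assay system: purified chicken nucleosomes with FITC-labelled LANA N-terminal peptide (1-23) / Probe or stimulus: 50 nM FITC-LANA1-23 probe / Compound dosing: pin-transferred compound, 100 nL / Times: compound with peptide–nucleosome mix 10–45 min at room temperature / Technique: fluorescence polarization, 480 nm excitation, 535 nm parallel and perpendicular emission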
* marks the source's active call; other numbers are inactive results; . = not tested or not shown; & = joins results of further samples. Only part of the results is shown (hit frequency here may not be typical).

SMILES	Ab BasE inh	KSHV LANA nucl
N#Cc1cccc(NC(=O)CNc2ccc3ccccc3c2)c1	1.8	.
CC1=NNC(=O)C1CC(=O)N/N=C/c1sccc1C (stereo not given)	3.3	-1.6
Cc1cc(C)n(CCCNC(=O)c2ccc(S(=O)(=O)NCc3ccco3)cc2)n1	-0.1	.
COc1ccccc1CC(=O)N1CCN(S(=O)(=O)c2ccccc2C(F)(F)F)CC1	3.2	.
CC12CCC(C(=O)N3NC(=O)[C@@H](c4ccccc4)[C@@H]3c3ccccc3)(OC1=O)C2(C)C (stereo not given in full)	2.5	.
Cc1nn(-c2ccccc2)c(=O)c2ccccc12	0.3	0.3
Oc1[nH]c2ccccc2c1N=NC1=NCCC1	2.5	.
CC(C)CNc1nc(-c2ccccc2)cs1	2.4	-0.067
O=C(c1cccc(N2CCCS2(=O)=O)c1)N1CCN(c2ccccc2)CC1	2.2	.
CS(=O)(=O)N(Cc1ccccc1Cl)c1ccc(C(=O)Nc2ccc3c(c2)OCO3)cc1	2.9	.
CC1CCCCN1CCCNC(=O)Nc1ccc(Cl)cc1 (stereo not given)	-1.6	.
O=C(NC1=NCCS1)c1cc2nc(Nc3ccccc3)sc2s1	0.7	.
CCN(CC)C(=O)C1=C(C)N=C2SC(C#N)=C(N)N2C1c1ccc(Cl)cc1 (stereo not given)	-1.6	3.2
CCC12CN3CC(CC)(CN(C1)C(=O)c1ccccc1C3=O)C2=O	2.9	.
Cc1ccc(S(=O)(=O)N2CCCCC2C(=O)NC(C)c2ccc3c(c2)OCCO3)cc1 (stereo not given)	1.1	.
O=C(Cc1cccs1)Nc1c[nH]c(=O)[nH]c1=O	1.5	-1.2
O/N=C/c1nc(-c2ccc(Cl)cc2)n2ccccc12	2.6	.
Cc1cc2occ(CC(=O)O)c2cc1C(C)C	-0.5	.
CCn1cc(C2CC(=O)N(c3ccccc3)C2=O)c2ccccc21 (stereo not given)	1.1	0.86
CCOC(=O)C1CCN(c2ncnc3c2oc2ccccc23)CC1	1.8	-0.0035
CC(=O)Nc1ccc(NC(=O)COc2ccc(C)c(C)c2)cc1	1.1	-0.13
CCN(CC)C(=O)c1cccc(C)c1	.	-0.8
O=C(CSc1nnc2n1CCCCC2)NC(=O)c1cccs1	-0.1	.
CCn1cc(C(=O)N2CCCSC2=Nc2ccccc2)c(=O)c2ccc(C)nc21	-3.1	.
CCCCNC(=O)c1ccc2cn[nH]c2c1	0.3	-0.58
N#Cc1c(N)c(C(=O)c2ccccc2)n2c1CCC2	-4.1	.
O=C(Cc1csc(NC(=O)c2ccco2)n1)NCc1ccc(Cl)cc1	-24	.
Cc1cc(C)nc(SCC(=O)N2c3ccccc3C(C)CC2(C)C)n1 (stereo not given)	0.5	.
O=C(NC(N1CCCC1=O)(C(F)(F)F)C(F)(F)F)c1cccnc1	-1.2	.
O=C(O)C1CCC(=O)N1Cc1cccs1 (stereo not given)	.	-0.11
Clc1ccc(SCc2csc(-c3ccsc3)n2)cc1	1.8	.
Cc1ccc(-n2c(C)cc(C(=O)OCc3ccc(C#N)cc3)c2C)cc1	-2.6	.
COC(=O)c1c(C)[nH]c(C2=NNC(=NC3CCCCC3)SC2C)c1C (stereo not given)	2.2	.
CCCCCCCCCCC[C@@H](C[C@@H]1OC(=O)[C@H]1CCCCCC)OC(=O)[C@H](CC(C)C)NC=O	.	0.1
NC(=O)c1cc(Cl)ccc1I	-0.2	.
Cc1ccc2nc(C3CCCCC3)[nH]c2c1	0.8	0.67
CCc1ccccc1NC(=O)CNCc1ccccc1	1.5	-1.4
CCOC(=O)c1nn(-c2ccccc2)c(=O)cc1OCC(=O)Nc1ccc2c(c1)OCCO2	0.2	0.22
COC(=O)c1ccc(C(=O)Nc2ccc3nc(CN4CCCCC4)[nH]c3c2)cc1	-3.7	-0.61
CCCCSc1nnc2sc3ccccc3n12	0.2	-0.025
CC1Cc2ccccc2N1C(=O)CSc1ccc2c(c1)OCCO2 (stereo not given)	2.9	.
CCSc1cc(C(F)(F)F)nc2cc(C(C)(C)C)nn12	-3.6	.
CCc1nnc(NC(=O)c2ccc(S(=O)(=O)N3CCCCC3C)cc2)s1 (stereo not given)	4.0	-0.69
COc1ccc(OC)c(S(=O)(=O)c2ccc(C)cc2)c1	0.6	0.45
COc1ccc(-c2noc(CN3CCCC(C(=O)O)C3)n2)cc1OC (stereo not given)	0.1	-0.76
CCOc1ccc2c(c1)c(=O)c1cccnc1n2Cc1ccccc1C	-0.1	.
O=C(Nc1cccc(-c2nn[nH]n2)c1)c1cccs1	1.1	-0.38
Cc1ccc(NC(=O)c2ccsc2)cc1NS(C)(=O)=O	-0.7	.
CC1CCN2C(c3ccc(Cl)cc3)=CSC2=N1 (stereo not given)	1.1	.
Cc1ccc2nc(NC(=O)c3ccco3)sc2c1	-4.9	.
Cc1nc(SCC(=O)N2CCSc3ccccc32)c(C#N)c(C)c1C	1.7	.
COc1ccc(C(=O)c2oc3cc(OC)ccc3c2C)cc1	0.0	.
O=C(CCc1nc2ccccc2o1)OCc1cc(=O)n2c3c(sc2n1)CCCC3	0.4	.
CN(Cc1c(F)cccc1Cl)C(=O)Cc1ccc2c(c1)OCCO2	3.1	.
O=S(=O)(NC1CCCC1)c1cccs1	0.9	0.69
S=c1[nH]c2ccccc2n1CCc1ccccc1	0.4	.

Four entries from above in another layout.
Cc1nc(SCC(=O)N2CCSc3ccccc32)c(C#N)c(C)c1C
- Ab BasE inh = 1.7
- KSHV LANA nucl = .

CN(Cc1c(F)cccc1Cl)C(=O)Cc1ccc2c(c1)OCCO2
- Ab BasE inh = 3.1
- KSHV LANA nucl = .

O=C(CCc1nc2ccccc2o1)OCc1cc(=O)n2c3c(sc2n1)CCCC3
- Ab BasE inh = 0.4
- KSHV LANA nucl = .

Cc1ccc2nc(NC(=O)c3ccco3)sc2c1
- Ab BasE inh = -4.9
- KSHV LANA nucl = .

The listing continues:
SMILES	Ab BasE inh	KSHV LANA nucl
CC(C)Cn1c(SCn2nnc3ccccc3c2=O)nc2ccccc2c1=O	0.5	.
O=C(CCS(=O)(=O)c1ccc(F)cc1)Nc1ccccc1	0.1	0.97
COc1ccc(C(CC(=O)NCc2ccco2)Sc2n[nH]c(-c3ccc(Cl)cc3)n2)cc1 (stereo not given)	-0.1	1.3
Cc1cccc(-n2c(SCc3csc(C)n3)nnc2-c2cccc(S(=O)(=O)N(C)C)c2)c1	1.7	.
Cn1nc(C(=O)N2CCCCC2)c2c1-c1ccccc1SC2	-1.9	-1.1
COc1ccccc1N(C(=O)C1CSC(=O)C1)C(C(=O)NC1CCCCC1)c1ccncc1 (stereo not given)	1.4	-0.47
Cc1ccc(N2C(=O)C(C(C)C)NC2=S)cc1 (stereo not given)	2.3	.
CC(C)(C)OC(=O)n1cc(C(=O)c2ccccc2O)cn1	0.3	.
CCOC(=O)c1c(NC(=O)CC)sc(C)c1C	1.9	.
S=C(NCC1CCCO1)N1CCc2ccccc21 (stereo not given)	1.0	.
CC(C)(C)c1ccc(C(=O)NCCn2c(N)c(C#N)c3nc4ccccc4nc32)cc1	1.3	.
CCNS(=O)(=O)c1ccc(NC(=O)Cc2ccc(OC)cc2)cc1	-2.1	0.98
O=C(Nc1ccccc1)c1ccccc1OCC(=O)N1CCCC1	1.4	.
NC(=O)NCCc1nc2ccccc2[nH]1	-1.1	-0.41
COc1cc(C(=O)O)cc(OC)c1OCC(N)=O	2.6	.
CCc1cccc(NC(=O)Cn2ncc3c(=O)oc4ccccc4c32)c1	0.8	0.13

2 entries from above, with values under each structure.
Values run as follows: Ab BasE inh, KSHV LANA nucl
CCN(CC)C(=O)C1=C(C)N=C2SC(C#N)=C(N)N2C1c1ccc(Cl)cc1 (stereo not given)
  -1.6, 3.2
CCC12CN3CC(CC)(CN(C1)C(=O)c1ccccc1C3=O)C2=O
  2.9, .

Continued:
SMILES	Ab BasE inh	KSHV LANA nucl
Cc1cc2nc(CSc3nc4ccccc4[nH]3)cc(=O)n2o1	-3.6	0.0055
COc1ccc(C2CC(c3ccccc3)=NN2C(=O)CN(C)C2CCS(=O)(=O)C2)cc1 (stereo not given)	-0.4	.
COc1cccc(C(=O)OCC(=O)NCc2ccccc2)c1	3.4	.
COC(=O)c1ccc(NC(=S)NC2CC2)cc1	0.0	0.16
COC(=O)c1sc(N)c(C(=O)OC)c1COC(=O)CNS(=O)(=O)c1cccc(C#N)c1	0.5	.
CCn1cnc2cc(NC(=O)C3CCCCC3)ccc21	-3.9	-1.1
CCN(CC)C(=S)Nc1ccc2nsnc2c1	0.7	.
COc1ccc(S(=O)(=O)NC(CC(=O)NC2CCCC2)c2ccco2)cc1 (stereo not given)	-0.2	0.66
COc1cc2c(cc1OC)C(=O)NCC2	3.0	.
COc1cc(OC)c(C(=O)OC(C)C(=O)N2CCC(C)CC2)cc1OC (stereo not given)	-1.3	.
CCN(CC)c1ccc(C=C2C(=O)N(C)C(=S)N(C)C2=O)cc1	1.2	.
COc1cccc(C2c3c(oc4ccccc4c3=O)C(=O)N2c2ccccn2)c1 (stereo not given)	-0.3	-0.011
Cc1ccc(CSc2n[nH]c(N)n2)cc1	-1.5	1.1
COCCCn1c(C)cc(C(=O)COc2cccc(C#N)c2)c1C	2.6	.
O=C(c1ccc(Cl)cc1)c1cnc2ncccn12	-1.4	-0.19
CC(C)CN(C(=O)COc1ccc(C#N)cc1)c1c(N)n(CC(C)C)c(=O)[nH]c1=O	-0.3	.
COCCc1ccc(OCC(O)CNC(C)C)cc1 (stereo not given)	0.1&-0.2	0.24&-0.16&0.21&-0.21
CCOc1ccc2nc(N3CCC(C(=O)NCCOC)CC3)sc2c1	-1.4	2.2
COC(CNC(=O)c1ccc2c(=O)n(Cc3ccco3)c(=S)[nH]c2c1)OC	-1.5	3.1
CCOc1ccc(S(=O)(=O)N2CCC(C(=O)N(c3ccccc3)c3nc(C)cs3)CC2)cc1	3.9	.
CCOc1ccc(-c2nnc(N(C(=O)C3CCC3)C(C)C)s2)cc1	-2.7	-0.1
Cc1cccc(C)c1OC(=O)C1=CN2CCS(=O)(=O)N=C2C=C1	19	.
CC1(C)C(=O)Nc2ccccc2N1C(=O)COC(=O)CSc1nnc(-c2ccc(Cl)cc2)o1	-1.1	.
CCn1cc(C(=O)NC)c(=O)c2ccc(C)nc21	2.1	.
COc1ccc(NC(=O)C(=O)/C=C(\O)c2ccccc2)cc1	1.4	-0.26
CN(C(=O)Nc1ccc(Cl)cc1)n1cnc2ccccc2c1=O	1.3	.
COc1cccc(CN(C)CC(=O)Nc2c(C#N)c(C)c(C)n2Cc2ccco2)c1OC	-1.4	.
O=C(NCc1ccccc1)c1ccc(S(=O)(=O)C(F)F)cc1	-0.4	.
Cc1ccc(C(=O)c2cc(F)c(N3CCOCC3)cc2Cl)cc1C	-1.6	.
COc1ccc(-c2nc(CN3CCCC3c3cccs3)cs2)cc1OC (stereo not given)	-0.3	.
N/C(=N\OC(=O)c1ccc(Br)o1)c1ccncc1	-0.3	-0.14
COc1cc(OC)c(C(=O)OCCOc2ccccc2C)cc1OC	1.4	.
CC(c1ccccc1)C1CC(=O)N(Cc2ccccc2)C1=O (stereo not given)	-2.5	0.52
CS(=O)(=O)c1ncc(Cl)c(C(=O)N(Cc2ccccc2)c2ccccn2)n1	-0.5	0.52
CCOC(=O)CSc1n[nH]c(CN2c3ccccc3Sc3ccccc32)n1	0.4	.
Cc1noc(C)c1COc1cccc(C(=O)OCC(=O)c2ccc[nH]2)c1	-1.2	.
O=C(COC(=O)c1ccco1)N=c1sccn1Cc1ccccc1Cl	-0.5	.
O=c1c2ccccc2c(=O)n2n1Cc1ccccc1C2	2.4	-0.98
CC1(C)C2CCC1(CS(=O)(=O)N1CCCC1)C(=O)C2 (stereo not given)	-0.3	.
O=C(COc1coc(CN2CCc3ccccc3C2)cc1=O)N1CCCC1	-1.1	0.071
N#CC1(NC(=O)COc2ccc3ccccc3c2)CCCC1	-0.8	.
COC(=O)C(C(=O)N1CCCc2ccccc21)C1CCCC1 (stereo not given)	-0.4	0.2
C(=N/N1CCN(c2ccccc2)CC1)/c1ccccc1	3.0	.
CSCC(=O)OCc1cc(=O)oc2cc3c(cc12)CCC3	-0.3	.
O=C(O)c1ccccc1-c1ccccc1C(=O)NCCN1CCNC1=O	-0.1	2.2
Cc1nc(Nc2nc3ccccc3o2)ncc1C(=O)Nc1ccccc1	0.3	-0.14
Cc1ccc(NC(=O)c2ccc3noc(-c4ccccc4)c3c2)cc1F	1.8	-0.65
Cn1ccnc1C(=O)c1cc(SCC(=O)N2CCOCC2)nc2ccccc12	-1.3	.
CCCN1C(=O)c2cc(C(=O)NCCc3cccc(C)c3)ccc2C1O (stereo not given)	1.1	1.2
CC1CCN(c2nc3nonc3nc2Nc2ccc(F)cc2)CC1	1.3	0.093
Cc1ccc(Cn2cccc(NC(=O)c3ccncc3)c2=O)cc1	-2.9	-0.99
CCOc1ccc(NC(=O)CCNC(=O)Cn2ccc3ccccc3c2=O)cc1	0.0	-0.51
